RE007 growth inh: qHTS Assay for Inhibitors of the HIV-1 protein Vpr; S. pombe RE007 Vpr strain, BacTiter-Glo ATP luminescence, 24 h; control for the full effect not named in the record; Potency, µM (highest dose often 92.2 µM), without a hit: at the top dose activity change, negative = less growth; 0.21% of 360,000 active; active = well fitted falling curve with a large enough effect; inconclusive = small, poorly fitted or top-dose-only effect; inactive = no such curve, though single readings can be large or run the other way;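 note: % is set by controls: 0 for no effect and ±100 for the full control effect; nearly all actives have a fitted effect of over 50% in size; the assay follows cell death caused by Vpr and the record does not say whether a fall means rescue or toxicity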
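Fission yeast strain RE007, carrying one chromosomally integrated HIV-1 vpr copy, was seeded at OD 0.01 in PMG+AL medium with 23 nL pinned compound. After 24 h at 30 °C and 99% humidity, viability was read by BacTiter-Glo luminescence.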
LASV entry inh: qHTS for Inhibitors of binding or entry into cells for Lassa Virus; Lassa virus pseudotype entry inhibition, cell reporter; control for the full effect not named in the record; Potency, µM (highest dose often 37.9 µM), for inactives: at the highest dose activity change, negative = inhibition, most hits filed as inhibitors; 1.2% of 300,000 active; active means well fitted inhibition curve with a large enough effect; inconclusive means small, poorly fitted or top-dose-only effect, or effect the other way; inactive means flat fitted curve, though single readings scatter; tested in HEK293 cells; note: % is set by controls: 0 for no effect and ±100 for the full control effect; nearly all actives have a fitted effect of over 50% in size; luciferase read-out
Cruzain inh noDet: qHTS Assay for Promiscuous and Specific Inhibitors of Cruzain (without detergent); Potency, µM, without a hit: max response, negative = inhibition, most hits filed as inhibitors; 2.3% of 200,000 active; purified cruzain, Z-FR-AMC fluorescence, no detergent; active = well fitted curve in the direction sought with a large enough effect; inconclusive = small, poorly fitted or top-dose-only effect, or another doubt; inactive = no such curve, though single readings can be large; an effect the other way counts as inactive or inconclusive;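 note: plate controls were enzyme without inhibitor for no effect and buffer without enzyme for full effect; nearly all actives have a fitted effect of over 40% in size; top concentration of the series not given in the record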
Target sequence (P25779 123-467 limits assumed): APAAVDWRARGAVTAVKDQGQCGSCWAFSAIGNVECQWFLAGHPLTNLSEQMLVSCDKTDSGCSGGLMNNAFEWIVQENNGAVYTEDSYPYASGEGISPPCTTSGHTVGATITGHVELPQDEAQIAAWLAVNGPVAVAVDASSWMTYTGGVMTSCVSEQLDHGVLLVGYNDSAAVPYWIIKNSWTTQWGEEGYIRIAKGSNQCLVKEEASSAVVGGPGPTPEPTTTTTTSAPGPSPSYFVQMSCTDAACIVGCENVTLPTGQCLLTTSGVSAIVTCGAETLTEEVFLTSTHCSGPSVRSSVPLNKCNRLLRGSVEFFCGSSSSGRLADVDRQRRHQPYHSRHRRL
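Detergent-free condition (0.00005% Triton X-100) in acetate buffer pH 5.5 with DTT. 1.5 nM enzyme and compound were pre-mixed 15 min, then 2 uM Z-FR-AMC substrate added; reaction progress from fluorescence change between first and third reads (60 s).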
Cruzain Triton: qHTS Assay for Promiscuous and Specific Inhibitors of Cruzain (with detergent) | Cruzipain (Trypanosoma cruzi), P25779 | purified cruzain, Z-FR-AMC fluorescence, 0.01% Triton | Potency, µM, inactives show max response, negative = inhibition, actives largely listed as inhibitors | 0.43% of 200,000 active | AID 1478, 2009; active = well fitted curve in the direction sought with a large enough effect; inconclusive = small, poorly fitted or top-dose-only effect, or another doubt; inactive = no such curve, though single readings can be large; an effect the other way counts as inactive or inconclusive;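 note: plate controls were neutral wells for no effect and buffer without enzyme for full effect; nearly all actives have a fitted effect of over 40% in size; top concentration of the series not given in the record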
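Detergent-containing arm of a paired screen for aggregation-based inhibition: 0.01% Triton X-100 present. Cruzain at 1.5 nM cleaved 2 uM Z-FR-AMC at pH 5.5 with 5 mM DTT; AMC fluorescence gain over 60 s measured activity.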
2A StopGo: High Throughput Screening for Foot and Mouth Disease Virus Antivirals; human cells with a luciferase reporter of 2A StopGo recoding; control for the full effect not named in the record; Potency, µM (series often up to 57.9 µM), for inactives: top-dose signal change, negative = less light; 1.2% of 410,000 active; AID 1159524, 2015; active = well fitted falling curve with a large enough effect; inconclusive = small, poorly fitted or top-dose-only effect; inactive = no such curve, though single readings can be large or run the other way; tested in HEK293T cells; note: % is set by controls: 0 for no effect and ±100 for the full control effect; nearly all actives have a fitted effect of over 45% in size; luciferase light after 4 h
SARS PLP yeast: qHTS of Yeast-based Assay for SARS-CoV PLP | S. cerevisiae expressing SARS-CoV PLpro, growth rescue; control for the full effect not named in the record | Potency, µM (top dose mostly 32.9 µM), inactives show top-dose activity, positive = growth rescue | 0.19% of 330,000 active; note: 0% is about no effect; nearly all actives have a fitted effect of over 55% in size; growth read by luminescence after 48 h
MARV entry inh: qHTS for inhibitors of binding or entry into cells for Marburg Virus; Marburg virus pseudotyped entry inhibition, cell reporter; control for the full effect not named in the record; about a third of the inactives were read at about 46 µM; Potency, µM (doses to about 37.8 µM), inactives show at the top dose activity change, negative = inhibition, most hits filed as inhibitors; 1.8% of 300,000 active; AID 540276, 2011; active = well fitted inhibition curve with a large enough effect; inconclusive = small, poorly fitted or top-dose-only effect, or effect the other way; inactive = flat fitted curve, though single readings scatter; tested in HEK293 cells; about a fifth of its hits are not listed in these tables; note: % is set by controls: 0 for no effect and ±100 for the full control effect; luciferase read-out
NS1 function inh: qHTS Assay for Inhibitors of Influenza NS1 Protein Function. S. cerevisiae slowed by influenza A NS1, growth recovery by OD600. Potency, µM (doses to about 46.1 µM), without a hit: at the highest dose activity, positive = more growth. 0.4% of 270,000 active. AID 2326, 2010; note: actives are rising curves; nearly all actives have a fitted effect of over 50% in size
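S. cerevisiae expressing influenza A NS1, grown in glucose, washed, then diluted 1:100 into pH 6.0 -URA galactose medium with 23 nl compound. Growth recovery read as OD600; NS1-free strain serves as control.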
Active calls of the source: *; ? = inconclusive; · = not tested or not shown; [ ] = another dose, or the depositor's remark. Unless noted, calls come from the whole dose curve; as a rule, active means well fitted rising curve with a large enough effect; inconclusive means small, poorly fitted or top-dose-only effect; inactive means no such curve, though single readings can be large or run the other way. Potency is the fitted concentration of half-maximal effect.

SMILES	RE007 growth inh	LASV entry inh	Cruzain inh noDet	Cruzain Triton	2A StopGo	SARS PLP yeast	MARV entry inh	NS1 function inh
O=C(NC1CCS(=O)(=O)C1)/C(=C\c1ccc(F)cc1)NC(=O)c1ccccc1 (stereo not drawn)	12%	0%	·	·	-14%	3%	-8%[46.1 µM]	·
COc1ccc(/C=C(/NC(=O)/C=C/c2ccccc2)C(=O)NCCCCCC(=O)O)cc1	3%	1%	·	·	-10%	1%	6%	5%
CCOC(=O)c1ccc(NC(=O)c2cnccn2)cc1	2%	11%	-11%	1.5%	58%[activator]	-14%	3%	-2%
CCN(CC)C(=O)CSC1=N/C(=C/c2ccco2)C(=O)N1c1ccc(OC)c(Cl)c1	-32%	?	15%	-14%	-9%	10%	?	9%
Cc1cccnc1CNC(=O)C1CCC(=O)N(CCc2cccc(F)c2)C1 (stereo not drawn)	7%	·	·	·	11%	8%	·	14%
COc1ccccc1C1CC(=O)Oc2cc(C)c(Cl)c(C)c21 (stereo not drawn)	-6%	·	-29%	-5.7%	-14%	?	·	·
O=c1[nH]c(=O)n(Cc2ccc(F)cc2)c(O)c1/C=N/Nc1ccccc1	233%	?	·	·	-24%	1%	?	-33%
COc1ccc(N(C(C)C(=O)N2CCCC2)S(C)(=O)=O)cc1 (stereo not drawn)	2%	·	·	·	-11%	-1%	·	-3%
COc1cc(-c2nnc(COC(=O)c3cc(C)nc4ccc(C)cc34)o2)cc(OC)c1OC	7%	-2%	?	-11%	-27%	-6%	-2%	7%
N[C@@H](Cc1ccccc1)C(=O)N1CCC(C(=O)NCC(=O)NCC(=O)O)CC1	6%	?	·	·	7%	-2%	-2%	5%
N/C(=N/OCC(=O)Nc1cccc2ccccc12)c1nonc1N	-8%	-5%	-18%	2.0%	-13%	1%	0%	-14%
COc1ccc(Oc2ccccc2C=O)cc1	17%	-16%	0%	1.5%	-21%	-1%	-2%	0%
COc1ccc(N2CCN(C(=O)Cn3cncn3)CC2)cc1	1%	22%	·	·	-18%	-1%	3%	·
COC(=O)N/N=C/c1ccc(-c2ccc(Cl)cc2Cl)o1	-9%	-14%[46.1 µM]	·	·	11%	-3%	9%[46.1 µM]	-11%
CCCCn1c(N)c(N(CCOC)C(=O)COC(=O)/C=C/c2ccc(Br)cc2)c(=O)[nH]c1=O	-13%	-6%	·	·	-10%	?	0%	9%
O=C(COc1ccc(S(=O)(=O)N2CCOCC2)cc1)NCC1CCCO1 (stereo not drawn)	-10%	7%	·	·	-14%	8%	16%	-3%
Cc1c(C(=O)N/N=C/c2ccc(Cl)cc2)[nH]c2ccc(Cl)cc12	?	·	-30%	-11%	59%[activator]	-67%	·	0%
CCOc1ccc(S(=O)(=O)N2CN(c3cccc(C(C)=O)c3)c3nc4ccccc4nc32)cc1	11%	?	·	·	-15%	2%	-11%	·
COc1ccc(C2C(C#N)=C3NC(=O)c4c(sc5c4CCCCC5)N3C3=C2C(=O)CC(C)(C)C3)cc1 (stereo not drawn)	15%	23µM*	?	-1.3%	-25%	1%	?	?
CCc1ccc(NC(=O)NCC2CCN(Cc3cccc(Cl)c3)CC2)cc1	-4%	·	·	·	-11%	0%	·	0%
COc1ccccc1CNC(=O)C1CCN(Cc2nc(-c3ccc(OC)c(OC)c3)oc2C)CC1	·	?	7%	7.2%	-1%	·	1%[46.1 µM]	·
O=c1c2cc(Br)ccc2nc(-c2cccc(Cl)c2)n1O	-22%	?	·	·	-2%	-7%	?	-81%
COc1ccccc1Oc1ncnc2c1oc1ccccc12	30%	-27%	·	·	-9%	-3%	-18%	-3%
O=C(Cn1ccc2cc(S(=O)(=O)N3CCCC3)ccc21)NCc1ccccc1Cl	·	10%[46.1 µM]	-18%	-5.7%	11%	·	·	·
COc1ccccc1Oc1ccc2c(c1)C(=O)N(c1cccc3ncccc13)C2=O	-1%	-12%	-13%	-2.0%	20µM*	-15%	?	23%
COCCCNc1nc2c(c(=O)[nH]c(=O)n2C)n1CC(O)COc1cccc(C)c1 (stereo not drawn)	8%	-2%	8%	15%	0%	-8%	7%	7%
COc1ccc(-c2cn3nc4c(nc3n2)CCCC4)cc1	-12%	?	-22%	-12%	-30%	-1%	5.6µM*	0%
CCOC(=O)C1CCN(C(=O)CCc2nnc3ccc(N4CCN(C)CC4)nn23)CC1	-16%	17%[46.1 µM]	·	·	5%	-5%	2%[46.1 µM]	-10%
O=C(COC(=O)CCCOc1ccccc1)NC1CCS(=O)(=O)C1 (stereo not drawn)	4%	0%	·	·	-20%	-1%	4%[46.1 µM]	·
C/C(=N/O)c1ccc2c(c1)OCCOCCOc1cc(/C(C)=N/O)ccc1OCCOCCO2	9%	0%	-30%	-2.5%	0%	-12%	14%	-4%
CCn1ccnc1CN1CCCC(C(=O)c2cc(Cl)ccc2OC)C1 (stereo not drawn)	?	?	·	·	-18%	0%	?	1%
COc1ccc(-c2nc(-c3ccccc3)c(-c3cc([N+](=O)[O-])ccc3C)[nH]2)cc1OC	3%	?	-2%	-1.5%	0%	1%	?	2%
Cn1cc(Cc2ccccc2)c(=O)c(Cc2ccccc2)c1	-10%	-18%	·	·	17%	·	-1%	·
OCCNc1nc(-c2ccccc2)c2ccccc2n1	-1%	·	-6%	-0.7%	3%	-4%	·	0%
COc1ccccc1NC(=O)N1CCc2[nH]c3ccc(F)cc3c2C1	6%	-18%	?	-8.6%	?	2%	2%	-17%
Cc1c(Cl)ccc(S(=O)(=O)N2CCN=C2c2ccccc2)c1Cl	14%	9%	-9%	-1.5%	0%	-16%	?	-4%
O=C(NC(=O)c1ccc(F)cc1)Nc1nc(-c2cccs2)cc(C(F)(F)F)n1	-6%	13%	?	-1.4%	-29%	?	-7%	9%
COc1cc(SC)ccc1C(=O)NC(C)C	-3%	-12%	·	·	1%	2%	?	2%
CCOc1cc(C=NN2CCCCCC2)ccc1O	-13%	1%	·	·	50%[activator]	·	0%	·
O=C(O)c1cccnc1Sc1ccccc1Cl	-1%	·	·	·	0%	0%	·	3%
Clc1ccccc1/C=C/c1ccnc2ccccc12	?	·	·	·	17%	-1%	·	-51%
CC1(c2ccc(O)cc2)NC(=O)N(c2ccccc2)N1 (stereo not drawn)	1%	-4%	·	·	21%	-8%	?	·
CCCCC(=O)N/N=C(\C)CC(=O)Nc1ccccc1Br	-3%	11%	15%	-0.3%	-2%	5%	-19%	28%
Cn1nccc1C(=O)Nc1ccc(S(=O)(=O)N2CCCC2)cc1	2%	-1%	·	·	-10%	-2%	-19%[46.1 µM]	-9%
Cc1ccc(NC(=O)CSc2nc3ccccc3c(=O)n2CCCC(=O)N2CCCC2)cc1	-2%[3.69 µM]	?	?	-4.4%	-16%	3%	8.2µM*	-2%
COc1ccc(CCN(C)C(=O)CN2C(=O)NC3(CCCCC3C)C2=O)cc1OC (stereo not drawn)	-1%	-8%	·	·	-12%	0%	20%	·
Cc1ccc(N=Nc2cc(C)ccc2N)cc1	-26%	·	·	·	-58%	0%	·	-7%
O=C1Nc2ccccc2Oc2cc([N+](=O)[O-])cc(Oc3ccccc3)c21	9%	?	-13%	-7.0%	-11%	-3%	?	0%

3 structures out of the list, arranged by length of the SMILES, rising:
SMILES	RE007 growth inh	LASV entry inh	Cruzain inh noDet	Cruzain Triton	2A StopGo	SARS PLP yeast	MARV entry inh	NS1 function inh
O=C(O)c1cccnc1Sc1ccccc1Cl	-1%	·	·	·	0%	0%	·	3%
Cc1ccc(N=Nc2cc(C)ccc2N)cc1	-26%	·	·	·	-58%	0%	·	-7%
CCCCC(=O)N/N=C(\C)CC(=O)Nc1ccccc1Br	-3%	11%	15%	-0.3%	-2%	5%	-19%	28%

(listing goes on)
SMILES	RE007 growth inh	LASV entry inh	Cruzain inh noDet	Cruzain Triton	2A StopGo	SARS PLP yeast	MARV entry inh	NS1 function inh
Cc1ccc(S(=O)(=O)NNC(=O)CCC(=O)Nc2ccc(C)cc2C)cc1	13%	-6%	3%	-3.2%	11%	29%	0%	-14%
Cc1cc(C)c(NC(=O)c2cc(CN3CCOCC3)on2)c(C)c1	·	-4%[46.1 µM]	-13%	-0.9%	-4%	·	·	·
CCn1c(C)nc2cc(C(=O)OCCC(F)(F)F)ccc21	-26%	25%	7%	0.4%	47%[activator]	-23%	16%	-167%
COc1ccc(C2C(=O)N(C3CCCCCC3)CC(=O)N2CCc2ccc(OC)c(OC)c2)cc1 (stereo not drawn)	·	?	17%	0.4%	-6%	·	·	·
O=C(C1CCCO1)N1CCN(C(=S)Nc2ccc(Cl)c(Cl)c2)CC1 (stereo not drawn)	1%	10µM*	5%	-5.0%	54%[activator]	1%	?	4%
Cc1cccc(-n2nnnc2SCC(=O)NC2CCCC2)c1	1%	1%[46.1 µM]	·	·	-3%	5%	5%[46.1 µM]	·
CCCCN(C(=O)c1cccc(S(=O)(=O)N(C)c2ccc(C)cc2)c1)c1c(N)n(CCCC)c(=O)[nH]c1=O	-2%	6%	·	·	7%	6%	-5%	·
O=C(CCn1cnc2ccccc2c1=O)Nc1ccc2c(c1)OCCO2	27%	13%	-3%	0.5%	41%[activator]	4%	27%	-3%
COc1cccc(OCC(=O)Nc2nnc3n2CCS3)c1	·	-1%[46.1 µM]	7%	-0.2%	12%	·	·	·
Cc1cc(C)c(C#N)c(N2CCN(CCOc3ccc(Cl)cc3)CC2)n1	4%	?	0%	-1.2%	·	4%	?	-55%
C=C1CCC[C@]2(C)C[C@H]3OC(=O)C(CNCCN(C)C)[C@H]3CC12 (stereo partly drawn)	1%	·	·	·	-24%	0%	·	6%
COc1ccc(N2CCOCC2)c(NC(=O)c2cccs2)c1	-18%	19%[46.1 µM]	·	·	-26%	-3%	-16%[46.1 µM]	-16%
CCOc1cccc(OCCCCn2cnc3ccccc3c2=O)c1	-3%	21%	·	·	6%	1%	17%	-6%
COc1ccc(NC(=O)Cn2c(=O)oc3cc(S(=O)(=O)N4CCCC4)ccc32)c(OC)c1	-3%	·	·	·	?	8%	·	-9%
